UCH37 DUB inh = human UCH37 deubiquitinating enzyme inhibition. purified proteasome/UCH37, Ub-AMC cleavage fluorescence. inhibition, % (no concentration beside the values). 330,000 compounds, 0.33% hits;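 active = mean of two replicates above 20%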;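 also: 0% = compound-free wells with enzyme and 100% = wells lacking proteasome; stock transfer was 100 nL into about 20 µL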
Target sequence (Q9Y5K5 whole entry, looked up): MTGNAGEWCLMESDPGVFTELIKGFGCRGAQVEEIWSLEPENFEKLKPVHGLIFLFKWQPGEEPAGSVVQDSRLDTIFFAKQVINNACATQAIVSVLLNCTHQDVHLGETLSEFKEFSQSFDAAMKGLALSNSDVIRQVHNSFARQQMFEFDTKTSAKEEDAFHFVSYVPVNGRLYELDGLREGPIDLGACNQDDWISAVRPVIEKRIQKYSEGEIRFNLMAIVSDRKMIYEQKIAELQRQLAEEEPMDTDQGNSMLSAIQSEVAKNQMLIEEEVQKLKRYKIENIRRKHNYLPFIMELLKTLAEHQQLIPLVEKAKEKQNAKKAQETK
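Signal – fluorescence, ex 355 nm, em 460 nm · System – Proteasome-bound UCH37 · Input – 0.15 nM proteasome as dispensed · Timing – 30 min preincubation with enzyme, 25 min cleavage at room temperature · Read-out basis – percent inhibition of cleavage signal versus uninhibited and no-proteasome wells · Medium – Tris-HCl pH 7.4 with ATP-MgCl2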
MLL AF4-AF9 inh = MLL-AF4/AF9 protein interaction inhibition. P42568. AlphaScreen, biotin-AF4 peptide binding to FLAG-AF9. inhibition, % at 10 µM. 350,000 compounds, 0.47% hits;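 active = every replicate reaching a set inhibition limit, whatever the replicate mean, cut at about 25% in these data; inconclusive = mean inhibition reaches that limit but some replicates miss it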;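 also: 0% = plate neutral control median and 100% = total signal loss; the record names both 10 and 1 µM as test concentration; the first replicate is given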
Target sequence (P42568 whole entry, looked up): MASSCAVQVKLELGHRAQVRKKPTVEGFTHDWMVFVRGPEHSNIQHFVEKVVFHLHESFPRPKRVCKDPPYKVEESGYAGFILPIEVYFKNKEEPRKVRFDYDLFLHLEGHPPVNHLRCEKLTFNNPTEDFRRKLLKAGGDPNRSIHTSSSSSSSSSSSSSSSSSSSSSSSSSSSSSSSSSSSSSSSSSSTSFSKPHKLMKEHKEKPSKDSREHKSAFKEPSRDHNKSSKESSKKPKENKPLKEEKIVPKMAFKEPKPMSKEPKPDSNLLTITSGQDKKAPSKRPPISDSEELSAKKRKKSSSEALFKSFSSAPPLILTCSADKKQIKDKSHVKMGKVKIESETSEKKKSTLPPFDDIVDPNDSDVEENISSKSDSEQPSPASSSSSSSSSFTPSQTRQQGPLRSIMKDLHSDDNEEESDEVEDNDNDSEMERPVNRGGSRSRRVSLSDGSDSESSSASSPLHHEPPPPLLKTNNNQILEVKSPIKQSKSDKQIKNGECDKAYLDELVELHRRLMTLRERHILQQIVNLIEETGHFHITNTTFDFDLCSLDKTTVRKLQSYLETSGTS
Vif TR-FRET = inhibitors of Vif binding to APOBEC3G peptide, primary screen, biochemical, TR-FRET, GST-Vif 1-94, biotin-A3G peptide, dose response retest (AID 1117319) | TR-FRET GST-Vif / biotin-A3G peptide binding; higher % means a stronger effect; test concentration not given here; strong numbers were not always called active | inhibition, %, or IC50 in µM where a hit was titrated | 260,000 compounds, 0.57% hits;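 active = above the screen mean plus three standard deviations and confirmed in dose response; inconclusive = results disagree or hit not tested in dose response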;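 also: Vif residues 1-94 fused to GST binding biotinylated APOBEC3G peptide 110-148; 0% = full assay without inhibitor and 100% = GST in place of GST-Vif; retest series ran down from 100 µM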
E coli growth = E. coli growth inhibition | OD600 absorbance (concentration not given with the values) | 330,000 compounds, 0.21% hits | Escherichia coli growth, OD600, 23 h; active compounds read low;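 active = OD600 absorbance below the run mean of sample wells minus 3.6 SD, in any replicate, cut at about 0.56 in these data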;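 also: stock transfer was 300 nL into about 60 µL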
HNF4A DNA FP = change in binding of human HNF4 alpha to DNA; P41235; HNF4a-FITC DNA binding, fluorescence polarization, 1 h; AID 1224865; activity change, % at 10 µM; 360,000 compounds, 0.3% hits; in the data active = activity change above about 30%, passing the limit was not always enough;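 also: controls were the assay level and a saturating level of protein; the project sought stronger binding though the title names inhibitors; some compounds called inactive have numbers as strong as hits; positive values seem to mean higher polarization but the record does not say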
FGF22 binding = FGF22 (human) thermal shift binding | 340,000 compounds, 1.5% hits | AID 651658 | recombinant FGF22 thermal shift, SYPRO orange fluorescence; percent of sucrose octasulfate shift, DMSO zero | calls only at 9.99 µM;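 active = melting point raised past a set limit in the mean and every replicate; inconclusive = no clear call; three in four hits are not shown here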
Target sequence (Q9HCT0 whole entry, looked up): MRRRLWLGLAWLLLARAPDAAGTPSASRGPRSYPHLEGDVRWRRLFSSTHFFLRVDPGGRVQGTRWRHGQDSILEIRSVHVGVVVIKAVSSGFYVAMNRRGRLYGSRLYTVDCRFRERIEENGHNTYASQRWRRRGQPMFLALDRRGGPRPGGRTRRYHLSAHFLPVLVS
RanGTP-Imp inh = inhibitors of RanGTP-importin-beta interaction, primary screen, biochemical, FRET, CFP-Ran, YFP-importin-beta, homogeneous; 300,000 compounds, 1.1% hits; inhibition, % (test concentration not listed); cell-free CFP-Ran/YFP-importin-beta FRET ratio; AID 2216;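 active = most replicates above 15%; inconclusive = exactly half above 15%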;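 also: 0% = DMSO wells and 100% = Ran loaded with GDP instead of GTP; wells of about 40 µL received 100 nL stock; the first replicate is given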
* = called active by the depositor; i = inactive; ? = inconclusive; . = not tested or not shown; & = joins results of further samples.

SMILES	UCH37 DUB inh	MLL AF4-AF9 inh	Vif TR-FRET	E coli growth	HNF4A DNA FP	FGF22 binding	RanGTP-Imp inh
CCOC(=O)c1cnc(SC)nc1Oc1cccc(NS(=O)(=O)c2ccc(C)cc2)c1	2.3	.	-3.0%	0.727	0.4	.	-1.4
CCOC(=O)c1cnn2c(SC)ncnc12	.	-2.0	0.1%	.	-2.0	i	.
O=C(O)c1nc2nc(Cl)c(Cl)nc2[nH]1	-5.1	-3.5	18.8%	0.602	6.0	i	2.9
Cc1cc(NC(=O)CSc2ccc3nnc(-c4ccccc4)n3n2)no1	-28.5	1.9	-7.8%	0.742	-1.5	i	-2.5
CSc1nc2sc3c(c2c(=O)[nH]1)CCCC3	-3.2	.	-8.2%	0.716	-0.9	.	1.5
O=C(/C=C/c1ccccc1)c1cc(Br)ccc(=O)c1O	-5.4	.	24.6%	0.709	2.5	.	1.2
COc1ccc(NC(=O)/C(Cl)=C(/Cl)S(=O)Cc2ccccc2)cn1 (stereo unspecified)	4.1	.	4.6%	0.655	0.0	.	-1.3
Cc1cccc(Nc2nc(NCc3ccco3)nc(N)c2[N+](=O)[O-])c1	8.4	-10.1	.	0.719	0.0	i	-0.7
O=C(CCCn1c(=O)[nH]c2cc(Cl)ccc2c1=O)NCCN1CCN(c2ccccc2)CC1	2.1	.	-6.8%&5.1%	0.743	1.5	.	5.6
N#CCCCSc1nnnn1-c1cccc(Cl)c1	4.2	.	-5.0%	0.72	-1.0	.	?
CC(O)CCC(=O)NNC(=S)Nc1ccccc1 (stereo unspecified)	2.7	-1.8	-1.1%	0.668	2.0	i	-3.7
NC(=O)c1ccc(OCc2ccccc2)nc1	0.5	0.8	-0.5%	0.611	4.0	i	.
COc1cc(/C=N/NC(=O)CC2C(=O)NN=C2C)ccc1O (stereo unspecified)	.	5.0	0.3%	.	-2.6	i	6.3
CN(C(=O)COC(=O)CNC(=O)c1ccccc1F)C1CCCCC1	3.0	-0.4	9.8%	0.699	1.8	i	-1.7
CC(=O)c1cccc(OCC(=O)N(C)CC(=O)Nc2ccc(F)cc2)c1	4.6	-25.1	.	0.692	.	i	64.6*
O=C(Nc1cccnc1Cl)c1cc(-c2cccc(O)c2)on1	0.6	-5.4	.	0.723	1.9	i	0.2
O=c1c(C(c2ccc(O)cc2)c2c(O)nc3n(c2=O)CCCS3)c(O)nc2n1CCCS2	5.3	.	3.2%	.	2.8	.	8.7
O=C(NCc1cccnc1)C1CCCN1S(=O)(=O)c1ccc(Cl)cc1 (stereo unspecified)	5.0	-0.5	.	0.703	-2.2	i	2.2
C/C(=N\NC(=O)c1nnn(-c2nonc2N)c1CSc1ccc(C)cc1)c1cccs1	.	0.9	.	.	5.7	i	.
C=CCN1C(=O)C2C(C(=O)NCc3ccccc3)C3(C)C=CC2(O3)C1C(=O)NC(C)(C)C (stereo unspecified)	1.9	.	1.6%	0.695	0.2	.	4.9
O=C(COC(=O)c1ccccc1C(=O)c1ccc(Cl)cc1)NCC1CCCO1 (stereo unspecified)	3.1	-0.2	.	0.705	2.4	i	3.6
Cc1ccc(N(Cc2ccccc2)C(=O)c2ccc(F)cc2)cc1	4.7	-2.1	.	0.714	3.8	i	-3.8
Cc1ccc(S(=O)(=O)NCC(=O)OCC(=O)Nc2cccc(S(=O)(=O)NC3=NCCCCC3)c2)cc1	0.6	-0.4	.	0.696	3.0	.	0.8
CC(C)(C)c1ccc(OC(=O)c2ccc(-n3cncn3)nc2)cc1	-0.3	-2.2	-4.3%	0.705	.	i	1.9
CN1CCN(c2ccc(NC(=O)c3ccco3)cc2Cl)CC1	-0.6	4.1	.	0.712	0.4	i	-1.2
O=C(NC1C2CC3CC(C2)CC1C3)c1ccc2c(c1)OCO2 (stereo unspecified)	1.4	1.3	.	0.664	3.5	i	6.6
CCOc1ccc(-n2c(SCC(N)=O)nc3c(c2=O)SCC3)cc1	7.4	.	?	0.685	1.1	.	-4.5
O=S(=O)(c1cccs1)n1cnc2ccccc21	3.6	.	12.1%	0.671	0.9	.	1.8
O=C(NCc1ccccc1)c1ccc(C2SCC(=O)N2Cc2ccccc2)cc1 (stereo unspecified)	6.1	.	-2.4%	0.713	-4.9	.	1.3
CCCSc1nc2c(c(=O)[nH]c(=O)n2C)n1CCc1ccccc1	8.4	.	8.1%	0.697	-0.8	.	1.6
NC(=O)CC1Nc2cccc3cccc(c23)NC1=O (stereo unspecified)	7.3	.	.	0.654	-2.5	.	-3.2
S=C(NCCc1ccncc1)Nc1ccccc1	0.1	-0.8	-7.3%	0.661	1.1	i	-0.5
O=C(Cc1ccccc1[N+](=O)[O-])Nc1ccccc1C(=O)N1CCOCC1	2.8	-2.6	-9.1%	0.632	4.5	i	1.5
Cc1ccc(NC(=O)NNC(=O)COc2ccc(Cl)cc2)cc1	4.4	-3.7	.	0.653	0.1	i	0.9
COc1ccccc1N1CCN(C2CC(=O)N(c3ccccc3)C2=O)CC1 (stereo unspecified)	1.1	0.0	.	0.69	0.7	i	-3.5
O=C(OCc1c(Cl)cccc1Cl)c1ccccn1	-2.3	.	4.9%	0.725	-3.5	.	-0.2
CCOC(=O)CSc1nc2sc3c(c2c(=O)[nH]1)CCCC3	-0.7	.	-9.5%	0.736	0.3	.	-3.5
CC1CN(S(=O)(=O)c2ccc(C(=O)O)cc2)CC(C)O1 (stereo unspecified)	3.2	-7.7	-7.0%	0.686	-1.9	i	-0.5
CCN(CC)S(=O)(=O)c1ccc2[nH]c(=O)cc(C(=O)Nc3ccccc3N3CCCC3)c2c1	.	4.1	14.1%	.	-1.6	i	?
Cc1ccc(C(=O)c2c3ccc(C(F)(F)F)cc3[n+]([O-])n2CCCC(N)=O)cc1	0.9	2.3	.	0.704	10.2	i	1.5
Cc1cccc(CSC2=NCCN2C(=O)c2ccc(S(=O)(=O)N(C)C)cc2)c1	4.4	-0.9	-0.7%	0.734	1.7	i	0.4
CSc1ncc(Cl)c(C(=O)Nc2nnc(SC/C=C/c3ccccc3)s2)n1	3.8	.	1.3%	0.699	-3.7	.	1.8
CC(C)Sc1ccc([N+](=O)[O-])cc1C(=O)Nc1ccncc1	7.2	2.8	7.1%	0.638	2.8	i	2.4
CCc1c(C#N)c(SCCC(=O)Nc2cccc(OC)c2)nc2c1C(=O)CC(C)(C)C2	1.4	.	-3.3%	0.765	1.2	.	2.7
CCOC(=O)c1cccc(NC(=O)CSc2nnc(-c3cccnc3)n2C)c1	2.3	.	0.1%	0.699	-3.1	.	-5.6
O=[N+]([O-])c1cccc(P(=O)(O)c2cccc([N+](=O)[O-])c2)c1	-0.5	-1.9	1.3%	0.686	-2.9	i	0.9
Cc1nc2ccc(NC(=O)COc3ccccc3)cc2s1	-0.3	-0.4	0.5%	0.656	0.5	i	.
O=C(c1ccc2c3c(cccc13)CC2)C1CCCN(C(=O)c2cc[n+]([O-])cc2)C1 (stereo unspecified)	-103.4	-0.3	5.1%	0.64	4.0	i	-0.2
O=C(c1cccc(S(=O)(=O)N2CCOCC2)c1)N1CCCCCC1	6.1	.	26.5%	0.715	5.7	.	0.2
Cc1cc(Cl)c2oc(C(=O)N(C)Cc3ccon3)c(C)c2c1	2.0	0.5	.	0.639	-33.0	i	8.7
Cc1cc(C)nc(Nc2ccc(C(=O)O)cc2)n1	0.2	.	-1.0%	0.632	-0.5	.	?
CC(C)(C)c1ccc(-c2nnc3sc(-c4ccccn4)nn23)cc1	-3.7	1.3	-10.7%&7.5%	0.765	-1.6	i	4.6
C/C(=N\N=C1/NC(=O)C(C)S1)c1ccc([N+](=O)[O-])cc1 (stereo unspecified)	.	.	-1.2%	.	-3.2	.	1.6
COc1ccc(CCC(=O)Nc2cccc(Cl)c2)cc1	-0.6	.	-6.6%	0.673	-1.5	.	0.0
Cc1ccc(C(c2sc3ncnn3c2O)N2CC(C)CC(C)C2)cc1 (stereo unspecified)	4.3	-0.9	?	0.782	0.7	i	-2.5
CC(=O)C1=C(O)C(=O)N(c2cccc(Br)c2)C1c1ccc(Br)cc1 (stereo unspecified)	3.8	1.2	.	0.701	-0.5	i	-1.2
CSc1ccc(C(=O)C2CCCN(S(=O)(=O)N(C)C)C2)cc1 (stereo unspecified)	1.7	0.8	4.0%	0.681	-2.5	i	-1.6
O=C(OCC(=O)c1ccc(Cl)s1)c1cncc(Br)c1	1.2	3.0	.	0.693	4.3	i	.
CC(C)CC(NC(=O)c1cccs1)c1nnc(SCc2ccc(Cl)c(Cl)c2)n1C (stereo unspecified)	5.4	1.4	.	0.719	0.1	i	3.4
OC[C@@H]1CN(CCN2CCOCC2)C[C@H](n2cnc3c(NCc4ccco4)ncnc32)O1	.	-8.7	.	.	-1.8	i	.

The list continues.
SMILES	UCH37 DUB inh	MLL AF4-AF9 inh	Vif TR-FRET	E coli growth	HNF4A DNA FP	FGF22 binding	RanGTP-Imp inh
Cc1ccc(C(=O)N2CCCCC2C(=O)O)o1 (stereo unspecified)	4.1	-0.7	1.6%	0.699	2.4	i	2.2
CCOC(=O)Cc1csc(SCC(=O)NC2CCCC(C)C2C)n1 (stereo unspecified)	6.5	4.1	2.7%	0.669	0.2	i	4.6
Clc1ccccc1C1=Nn2c(nnc2-c2ccco2)SC1	.	-0.1	28.5%	.	-0.6	i	4.9
CCCCC(c1nc2ccccc2[nH]1)n1c(=O)c(-c2ccccc2)nc2cc(C)c(C)cc21 (stereo unspecified)	.	2.2	.	.	-0.9	i	.
CC(=O)c1cc(F)ccc1OCC(=O)N1CCCc2ccccc21	2.7	-1.2	?	0.685	0.6	i	3.9
CC(C)Cn1c(-c2ccccc2)nc(=S)c2c1CCCC2	12.6	.	2.4%	0.699	1.2	.	2.0
C[C@@H](C(=O)NCCc1ccccc1F)N1C(=O)N2CCc3c([nH]c4ccccc34)[C@@]2(C)C1=O	4.4	5.7	.	0.758	1.3	i	0.8
CC1CCCC(NC(=O)CN2C(=O)NC(C)(c3cc(F)ccc3F)C2=O)C1C (stereo unspecified)	3.4	-1.2	-10.1%	0.662	-0.7	i	.
S=C(Nc1ccccc1)N1CCOCCOCCN(C(=S)Nc2ccccc2)CCOCCOCC1	-0.9	-3.4	9.7%	0.695	-2.2	i	0.9
Cc1ccc(NC(=O)C(c2ccccc2)N2CCN(C(=O)c3ccco3)CC2)cc1Cl (stereo unspecified)	1.2	-0.6	6.4%	0.702	-5.5	i	.
CC(=O)c1sc(-c2ccc(Cl)cc2)cc1N	-19.6	.	13.3%	0.623	1.3	i	-3.5
O=C1c2ccccc2NC(c2ccc(O)c(O)c2)N1c1ccccc1Cl (stereo unspecified)	-67.5	0.7	.	0.65	3.5	.	6.1
COc1cccc(NC(=O)c2oc3ccccc3c2NC(C)=O)c1	-1.2	3.8	31.6%	0.701	-0.8	i	-1.2
COc1ccccc1OCCNC(=O)C1CC(=O)N(c2cccc(SC)c2)C1 (stereo unspecified)	4.3	0.4	2.0%	0.693	-3.7	i	-3.6
O=C(CCCc1c[nH]c2ccccc12)N1CCN(c2ccc(N3CCOCC3)nn2)CC1	-54.4	3.4	0.8%	0.659	2.6	i	1.1
c1cc2[nH]c3ccncc3c2cn1	.	-0.2	.	.	-0.1	i	.
Cc1ccc(-c2ccc3c(c2)O[C@H](CN(C)Cc2cncnc2)[C@@H](C)CN([C@H](C)CO)S3(=O)=O)cc1	.	0.0&1.9&-4.8	.	.	-0.9	i	.

Screening data as filed in PubChem.

Only part of the results is shown (hit frequency here may not be typical).
